Screens (PubChem)
HSV augment: enhancers of HSV replication in host cells, fold increase, host cell viability. maximum fold increase. 220,000 compounds, 0.005% hits. HSV replication augmentation in cells;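 active = peak rise of 1.5-fold or more in the series; tested in PC3 cells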;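 note: first round at 10 µM; read as green reporter fluorescence; hits show the peak of a series up to 25 µM; 1 = signal of infected wells without compound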
RGS16-Gao HTS: modulators of RGS16 binding to Galphao, primary screen, biochemical, human proteins, multiplexed bead flow cytometry. 220,000 compounds, 0.38% hits. bead-based flow cytometry RGS16-Galphao binding, fluorescence; actives lie on both sides. binding response (% of control), % at 10 µM;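 active = below 25% or above 175%, edge rows of some plates excepted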;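 note: Galphao activated by GDP with aluminum fluoride before binding; 100% = wells without compound and 0% = beads without RGS; some results beyond the cut were filed as inactive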
Target sequence (O15492 whole entry, looked up): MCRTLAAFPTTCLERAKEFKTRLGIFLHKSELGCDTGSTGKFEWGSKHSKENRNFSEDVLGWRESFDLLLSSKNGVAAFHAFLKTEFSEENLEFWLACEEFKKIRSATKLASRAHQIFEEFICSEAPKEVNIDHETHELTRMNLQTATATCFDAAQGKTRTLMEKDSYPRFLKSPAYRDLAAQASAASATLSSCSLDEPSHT
Target sequence (P09471 whole entry, looked up): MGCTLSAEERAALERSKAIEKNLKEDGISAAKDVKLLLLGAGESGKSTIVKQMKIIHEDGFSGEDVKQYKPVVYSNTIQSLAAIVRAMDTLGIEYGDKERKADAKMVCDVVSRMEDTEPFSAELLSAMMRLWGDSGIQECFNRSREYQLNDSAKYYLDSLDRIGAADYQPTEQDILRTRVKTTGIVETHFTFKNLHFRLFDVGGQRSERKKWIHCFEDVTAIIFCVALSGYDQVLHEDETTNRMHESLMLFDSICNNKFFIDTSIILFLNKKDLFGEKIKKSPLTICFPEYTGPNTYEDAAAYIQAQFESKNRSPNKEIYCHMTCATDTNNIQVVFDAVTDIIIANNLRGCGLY
PKD1 inh: inhibitors of human PKD1 kinase, biochemical, fluorescence polarization. Serine/threonine-protein kinase D1 (Homo sapiens), Q15139. PKD1 kinase fluorescence polarization assay. inhibition, %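 (about 10 µM by stock and volumes)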. 200,000 compounds, 0.056% hits. AID 797, 2007;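 active = inhibition of 50% or more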;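 note: controls were vehicle for no effect and a reference inhibitor for full effect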
Insulin prom inh: inhibitors of insulin promoter-driven GFP, primary screen, imaging, TRM-6 cells (human fetal islet line), eGFP reporter, cell count; reporter expression induced with tamoxifen; inhibition, % at 2 µM; 130,000 compounds, 0.9% hits; AID 1273, 2008;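 active = inhibition above the mean plus 3 SD, with well images judged a real hit on visual review, cut at about 60% in these data, passing the limit was not always enough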
GALR2 agonist: GALR2 receptor agonists, primary screen, cell-based; activation, %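 (tested at 5 µM)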; AID 803, 2007; GALR2-expressing cells, agonist activation read-out; 140,000 compounds, 0.48% hits; Galanin receptor type 2 (Homo sapiens), O43603;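 active = above mean plus 3 SD of all compounds, about 5% in these data, not always enough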;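 note: 0% = vehicle buffer wells and 100% = reference agonist at full effect; tested in CHO reporter cells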
Target sequence (O43603 whole entry, looked up): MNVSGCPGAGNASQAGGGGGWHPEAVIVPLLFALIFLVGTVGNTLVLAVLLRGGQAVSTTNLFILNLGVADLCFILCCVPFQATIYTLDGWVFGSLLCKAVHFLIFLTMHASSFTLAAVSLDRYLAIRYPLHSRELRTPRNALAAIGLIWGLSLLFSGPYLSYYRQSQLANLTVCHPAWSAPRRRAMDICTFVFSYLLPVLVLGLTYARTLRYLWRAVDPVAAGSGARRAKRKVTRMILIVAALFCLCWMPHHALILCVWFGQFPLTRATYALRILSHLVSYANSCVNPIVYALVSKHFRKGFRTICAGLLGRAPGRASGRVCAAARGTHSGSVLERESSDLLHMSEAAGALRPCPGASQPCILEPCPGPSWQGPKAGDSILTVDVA
Insulin prom inh cell count: recorded beside Insulin prom inh, whose call it bears; normalized cell count, %; measured here: cell count, toxicity; reference of the scale not given here;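 cells exposed to compound for 48 h; stained nuclei by imaging scaled within each plate; lower means fewer cells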
HSV augment primary fold: recorded beside HSV augment, whose call it bears; fold increase; compound at 10 µM; measured here: primary screen fold increase 10 uM; tested in PC3 cells;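 GFP signal in the first replicate; 1 = infected wells without compound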
Numbers without * were called inactive; i = inactive; . = no result given. Random draw from the library; any-hit rate near 1.2%.

SMILES	HSV augment	HSV augment primary fold	RGS16-Gao HTS	PKD1 inh	Insulin prom inh	Insulin prom inh cell count	GALR2 agonist
CCCOc1ccc([N+](=O)[O-])cc1C1NC(=S)NC(c2ccccc2)=C1C(=O)OCC (stereo unspecified)	i	0.96	101	10	0	72	-0.8
CCCCOc1cccc(NC(=O)CSc2nccn2C)c1	i	0.92	122	-9	-50	100	-1.6
COc1cccc(-n2c(CNC(=O)OC(C)(C)C)n[nH]c2=S)c1	i	1.2	95	7	-42	153	0.1
Cc1ccc(C(=O)NCCN2CCCC2)cc1	i	0.9	107	-8	-33	136	-3.1
CC1(C)C(c2ccccc2)=NC(c2ccccc2)N1O (stereo unspecified)	i	0.95	97	-6	-21	160	0.8
CN(C)c1ccc(/C=C/c2cc[n+](C)cc2)cc1	.	.	135	1	-174	74	-1.7
CC(C)=Cc1oc2ccc([N+](=O)[O-])cc2c1N1CC(C)OC(C)C1 (stereo unspecified)	i	0.97	98	-9	-36	116	.
O=C(OCc1cc2ccccc2[nH]c1=O)C1CCCO1 (stereo unspecified)	i	1	100	-8	31	100	-3.7
O=C(NCc1ccncc1)C(=O)Nc1nc2ccccc2s1	i	1.1	105	6	.	.	.
O=C(COC(=O)C1=COCCO1)Nc1cc(S(=O)(=O)N2CCCCC2)ccc1Cl	i	0.92	101	2	.	.	.
Cc1ccc(CNC(=O)C(=O)NCC2CCCO2)cc1 (stereo unspecified)	i	0.91	101	-3	28	158	-0.1
COC(=O)C1C2C=CC3(CN(CCc4ccccc4)C(=O)C13)O2 (stereo unspecified)	i	0.97	99	0	0	84	-0.1
O=C(Nc1ccc2ccccc2c1)N1CCN(c2ncccc2C(F)(F)F)CC1	i	0.95	105	-1	.	.	-1.3
Cc1ccc(-n2nnnc2SCc2nc3sc(C)c(C)c3c(=O)[nH]2)cc1	i	1.1	139	-2	-22	107	-0.1
NC(=O)c1nn(-c2cccc(Cl)c2)c(=O)cc1O	i	0.98	102	-7	27	140	1.0

The closing seven records of the section above open the next one.
SMILES	HSV augment	HSV augment primary fold	RGS16-Gao HTS	PKD1 inh	Insulin prom inh	Insulin prom inh cell count	GALR2 agonist
O=C(NCc1ccncc1)C(=O)Nc1nc2ccccc2s1	i	1.1	105	6	.	.	.
O=C(COC(=O)C1=COCCO1)Nc1cc(S(=O)(=O)N2CCCCC2)ccc1Cl	i	0.92	101	2	.	.	.
Cc1ccc(CNC(=O)C(=O)NCC2CCCO2)cc1 (stereo unspecified)	i	0.91	101	-3	28	158	-0.1
COC(=O)C1C2C=CC3(CN(CCc4ccccc4)C(=O)C13)O2 (stereo unspecified)	i	0.97	99	0	0	84	-0.1
O=C(Nc1ccc2ccccc2c1)N1CCN(c2ncccc2C(F)(F)F)CC1	i	0.95	105	-1	.	.	-1.3
Cc1ccc(-n2nnnc2SCc2nc3sc(C)c(C)c3c(=O)[nH]2)cc1	i	1.1	139	-2	-22	107	-0.1
NC(=O)c1nn(-c2cccc(Cl)c2)c(=O)cc1O	i	0.98	102	-7	27	140	1.0
CC(Oc1ccc(Cl)cc1Cl)C(=O)/C=C/N(C)C (stereo unspecified)	i	0.9	102	-5	11	88	-4.8
Cc1ccc(-n2c([C@@H]3C[C@H]3c3ccccc3)n[nH]c2=S)cc1	i	1	112	1	11	61	-0.5
O=C(Nc1ccc(Cl)cc1)N1CCN(c2ncccn2)CC1	i	0.83	103	-7	-5	118	.
O=C(c1ccc(F)cc1)n1c(NCc2ccccc2)n[nH]c1=S	i	0.97	118	3	.	.	.
Brc1cccc(/C=N/Nc2nn[nH]n2)c1	i	1	91	0	.	.	.
CCOc1ccccc1OCc1nn2c(COc3ccccc3)nnc2s1	i	1	82	-6	-21	133	0.0
CCOC(=O)c1ccc(N2C(=O)c3n[nH]c(-c4ccco4)c3C2c2cccc([N+](=O)[O-])c2)cc1 (stereo unspecified)	i	0.62	102	-4	3	84	-0.2
CC(O)C(=O)N/N=C/c1cccc(Cl)c1Cl (stereo unspecified)	i	0.95	54	3	7	149	-0.3
Cc1cc(-c2[nH]nc3c2C(c2ccsc2)C(C#N)=C(N)O3)c(C)s1 (stereo unspecified)	i	1.2	103	-1	-420	53	-2.6
S=C(Nc1cc(Cl)ccc1Cl)Nn1cnnc1	i	1	98	.	.	.	.
COc1ccc(C(=O)Oc2cccnc2)cc1OC	i	0.92	95	-5	-33	85	-2.4
CCCCCC(=O)Nc1c(-c2cccs2)c(=O)c2ccccc2n1C	i	0.89	104	4	22	145	-0.7
O=C(Nc1ccccc1-c1nc2ccccc2[nH]1)c1sc2ccccc2c1Cl	i	0.62	115	-2	-36	124	0.5
Nc1cc(C(=O)O)c(N)c2c1C(=O)c1ccccc1C2=O	i	0.97	98	.	.	.	.
Cc1nc2c3cc(Cl)ccc3n(CCN3CCOCC3)c2s1	i	0.81	101	.	.	.	.
CCCCn1c(NS(=O)(=O)c2ccccc2)c(S(=O)(=O)c2ccc(C)cc2)c2nc3ccccc3nc21	i	1.6	100	0	.	.	-0.7
O=C(NNC1=NCCC1)C1CC1	i	1	105	2	46	65	.
Cc1ccc(S(=O)(=O)/C(C#N)=C/c2c(N3CCC(C(N)=O)CC3)nc3ccccn3c2=O)cc1	i	1	106	-14	-4	45	-1.7
O=C(Nc1cc(Cl)cc(Cl)c1)c1cnn2cccnc12	i	0.85	79	2	38	121	-0.1
COc1ccc(CC(=O)NC2CCN(Cc3nnnn3C(C)(C)C)CC2)cc1OC	i	0.98	74	13	.	.	0.5
Cc1cn2c(N)c(/C=C3\C=Nc4ccccc43)c(=O)nc2s1	i	1	102	.	.	.	.
COC(=O)c1ccc[n+](CC(=O)c2ccc(Br)cc2)c1	i	0.98	44	-10	38	62	-0.6
COc1ccc(C(=O)NCCc2c[nH]c3ccccc23)cc1S(=O)(=O)N1CCOCC1	i	0.87	103	3	36	84	-1.1
CCOc1ccc(NC(=O)CSc2nnc(C34CC5CC(CC(C5)C3)C4)n2C)cc1	i	0.75	98	4	8	107	-1.2
O=C(N/N=C/c1ccccn1)c1ccccc1	i	0.95	88	-14	-7	89	0.3
CC1(C)CC(=O)C(C(=O)Cc2ccccc2[N+](=O)[O-])C(=O)C1	i	0.94	97	-7	-84	86	-0.8
O=C(Cn1cc([N+](=O)[O-])cn1)Nc1ccn(Cc2c(F)c(F)cc(F)c2F)n1	i	1.1	97	-5	14	95	-1.8
COc1ccc(N2CCN(c3ncccc3C#N)CC2)cc1	i	1.2	94	11	22	86	-0.8
COc1ccc(CNC(=O)COc2cc(=O)n(C)c3ccccc23)cc1	i	0.88	106	-2	7	125	.
CCn1cc(C(=O)NNC(=O)c2ccc(Cl)cc2)c(=O)c2ccc(C)nc21	i	0.93	108	1	.	.	.
CCOc1ccc(/C=C2\SC(=O)N(CCNC(=O)C3COc4ccccc4O3)C2=O)cc1OC (stereo unspecified)	i	0.75	100	-2	19	173	-2.2
COc1ccc(-c2[nH]nc3c2C(c2ccsc2)C(C#N)=C(N)O3)cc1 (stereo unspecified)	i	0.92	104	5	-2	39	-1.0
O=C(COC(=O)Cc1cccc(C(F)(F)F)c1)Nc1ccccc1	i	0.93	111	5	.	.	-1.9
Cc1[nH]oc(=O)c1N=Nc1ccccc1	i	1	82	-11	19	112	-0.2
O=C(O)c1ccc(-n2cccc2/C=C2/NC(=O)N(c3cccc(Cl)c3)C2=O)cc1	i	0.99	102	-2	-53	114	.
COc1ccc(OC)c(NC(=O)C2CCCN2C(=O)C2CCC(C)CC2)c1 (stereo unspecified)	i	0.97	100	-9	.	.	-1.6
Cc1ccc(CSCCNC(=O)/C=C/c2ccc(Cl)cc2)cc1	i	0.82	103	-1	-3	103	-1.7
Cn1c(=O)[nH]c(=O)c2c1nc(N1CCOCC1)n2CCCSc1ncccn1	i	1	98	-6	6	121	-1.3
FC(F)(F)c1cccc(NC(=S)NCc2ccccc2)c1	i	0.88	100	-6	.	.	-1.6
Cc1ccc(NC(=O)COc2cccnc2[N+](=O)[O-])cc1S(=O)(=O)N1CCOCC1	i	1.1	100	-6	.	.	.
COc1ccc(/C=C2/N=C(SC)NC2=O)cc1OC	i	1	101	.	.	.	.
CC1CCCN(C(=O)CSc2nnc(-c3c[nH]c4ccccc34)o2)C1 (stereo unspecified)	i	0.72	108	0	.	.	-1.0
Cc1cc(C)c(NC(=O)C2CCCN2CCOC(=O)c2cccc([N+](=O)[O-])c2)c(C)c1 (stereo unspecified)	i	0.82	92	0	-65	87	-0.2
CSc1ccccc1-c1nnc(-c2ccc(Cl)cc2Cl)o1	.	.	103	-1	.	.	0.1
Cc1ccc(NC(=O)C(SCC(=O)O)c2ccccc2)cc1C (stereo unspecified)	i	0.93	99	-19	-17	41	-0.3
CCOc1ccc(N2C(=O)CC(SC(=NC)Nc3cccc(OC)c3)C2=O)cc1 (stereo unspecified)	i	0.85	104	-2	7	140	.
C=CCn1c(NCc2ccc3c(c2)OCO3)nc2ccccc21	i	0.8	119	6	.	.	-1.0
CCc1ccc(-c2cn3nc(-c4ccccc4)cnc3n2)cc1	i	0.83	99	.	.	.	.
CC1CC(=O)N(Cc2ccccc2)c2ccccc2N1C=O (stereo unspecified)	i	0.8	102	-7	.	.	-0.4
O=C(N/N=C/c1cccc(Oc2ccc([N+](=O)[O-])cc2[N+](=O)[O-])c1)c1cncc(Br)c1	i	0.64	101	-9	29	88	-2.6
Nc1nnc(SCC(=O)Nc2ccccc2)s1	i	0.98	109	.	.	.	.
COc1ccc(S(=O)(=O)N2CCOCC2)cc1NC(=O)COc1cccnc1[N+](=O)[O-]	i	0.85	101	5	-139	96	.
CCOC(=O)c1c(N)sc2c1C1CCN2CC1	i	0.92	76	6	.	.	-2.4
CCCCC(=O)N/N=C(/C)C1=C(C)C(C)(C)OC1=O	i	0.99	104	-3	20	94	.
CCc1c(C)nc2ncnn2c1N1CCCC(C(=O)Nc2cc(F)ccc2C)C1 (stereo unspecified)	i	0.95	104	4	-14	93	0.2
CC(=O)c1ccc(S(=O)(=O)N2CCN(C)CC2)cc1	i	1.1	109	-6	21	101	.
O=C(Nc1cccc2cccnc12)c1ccc(Br)o1	i	0.94	103	-3	30	133	-3.8
Cc1cccc(NC(=O)CCN2CCOCC2)c1	i	0.93	97	-4	.	.	-1.9
CCN1C=CC2=C(C#N)C(N)C(C#N)(C#N)C(c3ccccc3C(F)(F)F)C2C1 (stereo unspecified)	i	1.2	103	0	-371	96	2.0
Cn1c(=O)c2c(ncn2CC(=O)OCC(=O)NC(c2ccccc2)c2ccccc2)n(C)c1=O	i	1	106	-2	7	97	0.6
The list continues.
SMILES	HSV augment	HSV augment primary fold	RGS16-Gao HTS	PKD1 inh	Insulin prom inh	Insulin prom inh cell count	GALR2 agonist
CC(=O)Nc1nc(CCC(C)C)cc2c1c(=O)oc1ccccc12	i	0.83	90	2	68	46	0.2
CCN=c1sc(C(=O)Nc2ccccc2)c(C)n1CC	i	0.87	101	4	.	.	.
CCOc1nc(S(=O)(=O)c2ccc(C)cc2)c(Cl)s1	i	1.2	101	6	.	.	0.0
[O-][n+]1onc2c1CCc1c-2nn(-c2ccccc2Cl)[n+]1[O-]	i	0.87	104	-19	.	.	-2.9
CC(C)NS(=O)(=O)c1ccc(CCC(=O)N2CCCCC2)cc1	i	0.99	100	11	.	.	.
CC(=O)Nc1ccc(C(=O)NNC(=O)CCc2ccccc2)cc1	i	0.93	99	-10	-61	89	-1.6
CCOC(=O)Nc1sc2c(c1C#N)CCC(C)C2 (stereo unspecified)	i	0.89	95	-17	-89	86	-0.7
COc1cc(S(=O)(=O)NC2CCCCC2)ccc1Cl	i	0.91	97	5	-75	124	-4.3
CCOC(=O)c1cc2c(=O)n3ccccc3nc2n(C(C)C)c1=NC(=O)c1ccco1	i	0.96	101	12	.	.	.
CC1(C)CC(=O)C(C=NCCN2CCN(CC(=O)Nc3ccccc3)CC2)=C(O)C1	i	1	103	-6	36	70	-2.2
CC(=O)N1CCCc2cc(S(=O)(=O)NC(C(=O)NCc3ccc(C)cc3)C(C)C)ccc21 (stereo unspecified)	i	0.75	108	-1	.	.	-1.2
